Assay outcomes as filed in PubChem.
VDR inhibitor – Inhibitors of the vitamin D receptor (VDR): qHTS; VDR-SRC2-3 peptide fluorescence polarization, 2 h; Potency, µM, inactives show max response, negative = inhibition, most hits filed as inhibitors; Vitamin D3 receptor (Homo sapiens), P11473; hit rate 0.93% among 400,000; active = well fitted inhibition curve with a large enough effect; inconclusive = small, poorly fitted or top-dose-only effect, or another doubt; inactive = no such curve, though single readings can be large or run the other way; note: series mostly up to about 120 µM
Target sequence (P11473 whole entry, looked up): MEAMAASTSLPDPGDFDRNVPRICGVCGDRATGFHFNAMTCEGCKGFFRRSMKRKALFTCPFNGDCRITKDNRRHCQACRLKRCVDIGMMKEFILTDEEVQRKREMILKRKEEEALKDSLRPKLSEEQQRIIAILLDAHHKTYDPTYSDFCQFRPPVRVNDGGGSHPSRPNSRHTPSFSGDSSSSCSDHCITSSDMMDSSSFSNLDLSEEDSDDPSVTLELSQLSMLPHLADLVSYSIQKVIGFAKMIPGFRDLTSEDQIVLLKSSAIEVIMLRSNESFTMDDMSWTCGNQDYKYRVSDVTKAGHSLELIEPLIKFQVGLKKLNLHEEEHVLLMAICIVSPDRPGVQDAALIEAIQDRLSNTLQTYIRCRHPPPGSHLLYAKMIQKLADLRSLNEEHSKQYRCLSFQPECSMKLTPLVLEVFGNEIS
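VDR–SRC2-3 interaction, FP format. Cmpds 23 nl via pintool, brief spin, 2 h ambient incubation.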
* = called active by the depositor; u = inconclusive. % is set by controls: 0 for no effect and ±100 for the full control effect; potency is the fitted concentration of half-maximal effect. These rows are one share of the data; the hit share may differ from the screen's.

SMILES | VDR inhibitor
COc1ccc(NC(=O)c2nc3nccc(C)n3n2)cc1S(=O)(=O)N1CCOCC1 | 3%
C#CCn1c(=O)cc(C)c2ccccc21 | -6%
c1cncc(CSc2nnc3ccc(-c4ccncc4)nn23)c1 | -4%
COc1ccc(CCNC(=O)CCc2ccc(S(=O)(=O)NC(C)C)cc2)cc1OC | 10%
Cc1ccccc1NC(=O)CN(c1ccc(Cl)cc1Cl)S(=O)(=O)c1ccccc1 | -3%
Cc1cccc(C)c1NC(=O)CN(C)C(=O)CC1OC(=O)c2ccccc21 (centres undefined) | -8%
Cc1ccccc1C(=O)NC(=S)Nc1ccc(Cc2ccncc2)cc1 | -2%
COc1ccc(-c2ccc(OC)cc2C(=O)O)cc1 | -2%
Cn1ncc(N=Cc2ccccc2O)c1C(=O)N1CCOCC1 | 14%
CCCNC(=O)Cn1c(=O)cnc2ccccc21 | -1%
COc1ccccc1N1CCN(C(=O)c2cc3c(=O)n4cccc(C)c4nc3s2)CC1 | 11%
CC(=O)Nc1c(C(=O)N2CCCCCC2)cnn1-c1ccccc1Cl | 3%
Cc1ccc(-n2cc(C(=O)Oc3ccc(F)cc3)c3ccccc3c2=O)cc1 | -1%
CC(C)(C)C(=O)Nc1ccc(S(=O)(=O)Nc2ccccn2)cc1 | 0%
CCS(=O)(=O)N1Cc2ccccc2CC1C(=O)Nc1cccc(C)c1 (centres undefined) | 0%
CCNc1nc(N2CCOCC2)nc(N(c2ccccc2)c2ccccc2)n1 | -2%
CS(=O)(=O)Nc1cccc(S(=O)(=O)N2CCN(C(=O)c3ccccc3)CC2)c1 | 16%
CC(=O)Nc1ccc(S(=O)(=O)NCc2nnnn2-c2ccc(Cl)cc2)cc1 | -15%
Cc1cc([N+](=O)[O-])ccc1NC(=O)CCC(=O)N1CCCC1 | -1%
CS(=O)(=O)Nc1ccccc1C(=O)Nc1ccccc1Cl | 3%
FC(F)Oc1ccc(N=C2SCC3CCCCN23)cc1 (centres undefined) | 10%
Cn1nccc1NC(=O)Nc1cccc(Br)c1 | 23%
O=C(NCCN1CCOCC1)c1cccc(NS(=O)(=O)c2ccc(Br)cc2)c1 | -19%
Cc1cccc(OCC(=O)NCc2ccccc2)c1 | -14%
CCc1ccc(S(=O)(=O)N/N=C\c2ccc3c(c2)OCO3)cc1 | 8%

(list continues)
SMILES | VDR inhibitor
N#Cc1nc(COc2ccc(F)cc2)oc1N1CCN(Cc2ccccc2)CC1 | 4%
CCOC(=O)CNC(=O)CSc1nnc(Cn2c(=O)sc3ccccc32)n1C | -11%
CCN(CC)S(=O)(=O)c1ccc(OC)c(NC(=O)c2ccc(N3CCCC3=O)cc2)c1 | 2%
O=C(NCc1ccc(Cl)cc1)c1cccc(NC2=NC3CS(=O)(=O)CC3S2)c1 (centres undefined) | -2%
Cc1ccc(Cn2ccc(NC(=O)c3cc(-c4cccc(Cl)c4)on3)n2)cc1 | 19%
O=c1c2cnn(-c3ccccc3)c2ncn1Cc1ccccc1 | 0%
CC1CCC(CN2C(Nc3ccccc3)=NC[C@@H]2Cc2ccccc2)CC1 (some centres undefined) | -2%
O=C(NCCC(=O)N1CCC2(CC1)NCCc1[nH]cnc12)c1ccc(Br)cc1 | 0%
Cn1c2ccccc2c2cnn(CC(=O)NCCCN3CCCCC3)c(=O)c21 | 0%
Cc1nc(-c2ccc(F)cc2)sc1CCNC(=O)c1ccccc1 | 3%
COc1ccc(C(=O)N2CCC[C@@]3(CCN(Cc4cc(C(F)(F)F)cc(C(F)(F)F)c4)C3)C2)cc1 | u
FC(F)(F)c1ccc(-c2nnc(-c3cccnc3)o2)cc1 | 4%
O=C(NCc1cccnc1)c1cccn1-c1ncc(C(F)(F)F)cc1Cl | u
Cc1nc(C)c(-c2ccc(SCC(=O)Nc3ccc(Br)cc3)nn2)s1 | 3%
COc1cc2nc(NC(=O)c3ccccc3)sc(=O)c2cc1OC | 23%
Cn1ncc2c(N3CCN(c4cccc(Cl)c4)CC3)ncnc21 | 3%
CC(C)(C)c1ccc(OCC(=O)NCC2(N3CCOCC3)CCCCC2)cc1 | 4%
COc1cc(NC(=O)c2ccco2)c(OC)cc1NC(=O)CCC(=O)Nc1cc(C)ccc1C | 2%
Cc1ccc(-c2nnc(N3CCOCC3)c3ccccc23)cc1S(=O)(=O)NCC1CCCO1 (centres undefined) | 7%
COc1ccc(-c2nc3ccccc3c(=O)n2CCCN2CCOCC2)cc1 | -4%
O=C(O)CCN1C(=O)C(=C2CCCCCC2)SC1=S | -25%
Cc1cc(C)c2ccc(Cl)cc2n1 | -2%
CCCCC(Sc1nc(N)c(NC(=O)c2ccc(OCC)cc2)c(=O)[nH]1)C(=O)O (centres undefined) | 3%
COCc1nnc(NC(=O)C23CC4CC(CC(C4)C2)C3)s1 | -7%
COc1cc2nc(COc3ccccc3[N+](=O)[O-])oc(=O)c2cc1OC | -17%

Carrying on.
SMILES | VDR inhibitor
O=C(CSc1ncn[nH]1)c1ccc2c(c1)OCCO2 | u
C=Cn1nc(C)c2ccccc2c1=O | 10%
CCOc1ccccc1C(=O)Nc1c(C(=O)Nc2ccc(F)cc2)oc2ccccc12 | 9%
COC(=O)CCC(=O)c1ccn(S(=O)(=O)c2ccccc2)c1 | 20%
CSc1ccccc1NC(=O)c1cc2c(=O)n3ccccc3nc2s1 | -15%
Cc1ccc(NC(=O)C(C)OC(=O)C2CC3CCCC(C2)C3=O)cc1S(=O)(=O)N1CCOCC1 (centres undefined) | -6%
CC1(C)CC(NC(=O)COc2ccc3ccccc3c2)CC(C)(C)N1 | 2%
O=C(COc1ccc(F)cc1)N1CCC(c2ccccc2)C1 (centres undefined) | -12%
COc1ccc(CNc2cccc3[nH]c(C(F)(F)F)nc23)cc1 | 13%
Cc1ccc(OCCCCNC(C)(C)C)c([N+](=O)[O-])c1 | 4%
CC(C)(C)Nc1nc(Oc2ccc(=O)[nH]n2)nc(N2CCOCC2)n1 | -3%
CC(=O)N1CCc2cc(S(=O)(=O)NCCCN3CCCCC3)ccc21 | -19%
CC(O)c1cccc(NC2=CC(=O)CC(C)(C)C2)c1 (centres undefined) | 5%
CN1C(=O)C(CC(=O)Nc2ccc(F)cc2)N(Cc2cccs2)C1=S (centres undefined) | -7%
CN1CCN(S(=O)(=O)c2ccc(NC(=O)c3ccc(F)cc3Cl)cc2)CC1 | 15%
COc1cc(Cl)nn(-c2ccccc2)c1=O | u
N#Cc1ccccc1Sc1ccccc1C(=O)Nc1ccc2ccccc2c1 | -27%
CCSc1nnc(NC(=O)COc2ccccc2[N+](=O)[O-])s1 | -2%
Cc1cc(Cl)ccc1OCc1nnc(-c2ccccc2C)o1 | -15%
CCCNC(=O)Cn1c(=O)/c(=C\c2ccc(-c3ccc([N+](=O)[O-])cc3)o2)s/c1=C\C(=O)C(C)(C)C | -3%
CN(c1ccccc1)S(=O)(=O)c1cccc(NC(=O)C2=NN(c3ccccc3)C(=O)CC2)c1 | -8%
O=C(Nc1nc2ccc(Cl)cc2s1)c1cc(=O)c2ccccc2o1 | 5%
C=CCn1c(SCC(=O)c2c(N)n(C3CC3)c(=O)[nH]c2=O)nnc1-c1ccoc1C | 15%
COc1ccccc1C(c1nnnn1Cc1ccccc1)N1CCN(c2nc3ccccc3s2)CC1 (centres undefined) | -4%
COCCCNC(=S)N/N=C/c1ccc(O)cc1O | -3%

Later entries.
SMILES | VDR inhibitor
COc1ccc(NCc2cc3cc4c(cc3n(CC(=O)Nc3ccc(F)cc3F)c2=O)OCO4)cc1 | 10%
CCCC(C)C(=O)Nc1ccc(Cl)cn1 (centres undefined) | -4%
CC1Sc2ccc(C(=O)NCc3ccccn3)cc2NC1=O (centres undefined) | 79µM*
Nn1cc(Br)c(=O)[nH]c1=O | 1%
CN(C)c1ccc(CN(Cc2ccco2)C(=O)COc2ccc(F)cc2)cc1 | 16%
Cc1ccc(S(=O)(=O)NCCc2csc3nc(-c4ccccc4C)nn23)cc1 | 1%
COc1ccc(C(=O)Nc2ccccc2C(=O)O)cc1Cl | -7%
CN(C)S(=O)(=O)c1ccc2c(c1)nc(CCC(=O)NCC1CCCCC1)n2C | 8%
COC(=O)c1ccc(CSc2ncnc3sc(C)c(C)c23)o1 | 1%
CN1CCN(S(=O)(=O)c2cccc(C(=O)Nc3ccccc3N3CCOCC3)c2)CC1 | 16%
COC(=O)c1ccc(CNC(=O)C2CCC(=O)N(CCCc3ccccc3)C2)cc1 (centres undefined) | u
O=C(COC(=O)Cc1ccccc1F)NCCc1ccccc1 | 9%
O=C(CSc1nc(O)c(C2CCCCC2)c(=O)[nH]1)Nc1ccccc1Cl | -22%
C[N+]1(CCCCCCC(=O)/C=N/O)CCCCCC1 | -11%
Cc1ccc(-n2ncc3c(NCCCN4CCOCC4)ncnc32)cc1Cl | 0%
Cc1cc(C)cc(C(=O)N2CCC3(CC2)NCCc2[nH]cnc23)c1 | -7%
COc1ccc(CN(C)C(=O)c2cc(-c3ccccc3)nc3ccc(C)cc23)c(OC)c1OC | -15%
Cc1ccc(CNc2nc3ccccc3c3nc(-c4cccc(C)c4)nn23)cc1 | -3%
COc1ccc(C(=O)NCc2ccccc2)cc1Br | -8%
O=S1(=O)c2cccc3cccc(c23)N1Cc1ccc(-c2nnco2)cc1 | 26%
C=CCN(C(=O)CCc1ccccc1OC)c1nc(-c2ccc(S(C)(=O)=O)cc2)cs1 | 1%
CC1CCC(NC(=O)Cn2ncc3c4ccccc4n(Cc4ccc(Cl)cc4)c3c2=O)CC1 (centres undefined) | -5%
Brc1ccc(-c2nc3ccccc3s2)s1 | 4%
O=C(Nc1cc(C(F)(F)F)ccc1Cl)C(=O)N1CCCCC1 | -13%
Cn1nccc1C(=O)N1CCCC(C(=O)c2ccc(Oc3ccccc3)cc2)C1 (centres undefined) | -4%

Carrying on:
SMILES | VDR inhibitor
CC(C)(C)c1ccc(S(=O)(=O)CC(O)CSc2nc3c(cc2C#N)CCCC3)cc1 (centres undefined) | -1%
COc1ccc2oc(C(=O)OCC(=O)N(C)c3ccccc3)c(C)c2c1 | 1%
COC(=O)Cn1nc(-c2ccc(C)cc2)c2ccccc2c1=O | 6%
COc1ccc2[nH]c(=O)c(CN(Cc3ccco3)Cc3nnnn3Cc3ccccc3)cc2c1 | -13%
Cc1ccc(-n2cc(CN3CCNC(=O)CC3)c(-c3cccc(C)c3)n2)cc1 | u
O=C(Nc1ccc(F)cc1F)c1ccc2c(c1)CCN2S(=O)(=O)c1ccc(Cl)cc1 | 10%
CCOc1ccc(NC(=S)Nc2cccc3ccccc23)cc1 | -7%
O=S(=O)(Nc1cccc(-c2ccc3nncn3n2)c1)c1ccccc1F | 10%
Cc1ccc(-c2nnc(NCc3nc4ccccc4[nH]3)c3ccccc23)cc1S(=O)(=O)N1CCCCC1 | 9%
N#Cc1ccsc1NC(=O)CN1CCN(c2ccc(O)cc2)CC1 | -17%
Cc1cccc(N2CCN(C(=O)C3CCCN(S(=O)(=O)c4cnc[nH]4)C3)CC2C)c1 (centres undefined) | -5%
COc1ccc(C(NC(=O)CC(C)C)c2c(O)ccc3ccccc23)cc1 (centres undefined) | 9%
CC1CC(=O)N(c2ccc(N(C)Cc3ccccc3)c([N+](=O)[O-])c2)C1=O (centres undefined) | -9%
NS(=O)(=O)c1ccc(CNC(=S)NC(=O)c2ccco2)cc1 | 9%
CCCn1c(C)c(C(=O)OCC)c(O)c(-c2ccccc2)c1=O | -15%
CC(=O)N1CN(C2CC(C)(C)NC(C)(C)C2)Cc2c1sc1c2CCCC1 | -15%
O=C(Nc1nc(-c2ccccc2)cs1)c1ccc(Br)o1 | u
Cc1ccc(CN2CCN(/N=C\C(Br)=C\c3ccccc3)CC2)cc1 | 0%
CN1CCC(n2[nH]c(-c3ccccc3)c(Cc3ccccc3)c2=O)CC1 | -2%
C=CCn1c(N)cc(=O)nc1SCC(=O)Nc1ccc(C(=O)OCC)cc1 | -8%
O=C(CSc1nc2[nH]c(=O)cc(O)c2s1)Nc1nncs1 | -15%
Cc1nc(CSc2nsc(C)c2C#N)cs1 | -10%
O=C(NC(Cc1ccccc1)C(=O)O)C1CCN(S(=O)(=O)c2ccccc2C(F)(F)F)CC1 (centres undefined) | u
COc1ccc(C2=NOC(C(=O)NC3CCCCC3)C2)cc1OC (centres undefined) | 10%
CC(C)N1C(=O)N(c2ccc(Cl)cc2)C(C)(O)CC1(C)C (centres undefined) | -8%
Cc1nnsc1C(=O)N1CCN(c2ccc(F)cc2)CC1 | 0%
O=C(NCc1ccc(F)cc1)c1cccs1 | -19%
Cc1ccc(S(=O)(=O)N2CCCCC2)c(C)c1NS(C)(=O)=O | 7%
Cc1ccc(Nc2ncnc(N)n2)cc1C | -15%
CCOC(=O)C1CC=C(Cl)CC1C(=O)Nc1nccs1 (centres undefined) | 1%
